# Assay outcomes from PubChem.
# A1 inh – inhibitors of the anti-apoptotic protein A1, read as caspase activation; MEF A1-2A-BIM cells, Caspase-Glo 3/7 luminescence, 3 h; percent of clofoctol response, vehicle zero; 0.066% of 330,000 active; caspase activation, % (no concentration beside the values); AID 2462;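 active means over half of replicate activation scores above 10%, or exactly half above 10 with the replicate mean above 10; inconclusive means replicate mean below 10 yet half the replicates above 10; inactive means over half of replicates below 10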;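 further: wells of about 30 µL received 50 nL stock; many hits fall short of the cut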
# AF4-AF9 inh – inhibitors of human MLL-AF4/AF9 interaction; P42568; AlphaScreen, biotin-AF4 peptide binding to FLAG-AF9; inhibition, % at 10 µM; 0.47% of 350,000 active; AID 651704;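 active means every replicate reaching a set inhibition limit, whatever the replicate mean, cut at about 25% in these data; inconclusive means mean inhibition reaches that limit but some replicates miss it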;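 further: 0% = plate neutral control median and 100% = total signal loss; the record names both 10 and 1 µM as test concentration; the first replicate is given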
# Target sequence (P42568 whole entry, looked up): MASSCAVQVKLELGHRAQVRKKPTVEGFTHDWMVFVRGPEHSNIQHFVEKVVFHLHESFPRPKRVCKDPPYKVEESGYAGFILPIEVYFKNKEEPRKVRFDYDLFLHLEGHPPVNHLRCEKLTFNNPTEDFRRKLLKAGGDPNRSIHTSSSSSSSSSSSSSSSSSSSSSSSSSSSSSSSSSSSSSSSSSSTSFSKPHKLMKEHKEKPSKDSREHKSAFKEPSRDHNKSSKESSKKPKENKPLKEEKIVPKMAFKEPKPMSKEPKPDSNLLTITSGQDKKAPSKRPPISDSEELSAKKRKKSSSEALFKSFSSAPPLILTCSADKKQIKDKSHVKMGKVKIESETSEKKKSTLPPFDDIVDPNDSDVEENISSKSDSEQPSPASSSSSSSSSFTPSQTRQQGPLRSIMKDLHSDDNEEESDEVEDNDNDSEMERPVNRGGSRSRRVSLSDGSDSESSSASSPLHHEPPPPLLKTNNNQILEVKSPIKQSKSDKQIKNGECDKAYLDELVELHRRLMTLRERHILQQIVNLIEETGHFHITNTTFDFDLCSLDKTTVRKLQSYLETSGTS
# Beta cell apopt – beta cell apoptosis inhibition. protection from apoptosis, % (no concentration beside the values). 0.8% of 300,000 active. INS-1E cytokine-induced death, ATP luminescence, 48 h; percent of positive-control rescue, neutral wells zero;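 active means all replicates at 75% or more, or half of them and the mean; inconclusive means half reach 75% but not the mean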;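 further: 0% = cytokine-treated negative control wells and 100% = positive control rescue; higher means more ATP so stronger rescue from cytokine killing; wells of about 40 µL received 100 nL stock; the first replicate is given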
# FGF22 binding – FGF22 (human) thermal shift binding. 1.5% of 340,000 active. Q9HCT0. calls only at 9.99 µM. AID 651658. recombinant FGF22 thermal shift, SYPRO orange fluorescence; percent of sucrose octasulfate shift, DMSO zero;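 active means melting point raised past a set limit in the mean and every replicate; inconclusive means no clear call; three in four hits are not shown here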
# Ecoli growth – blocks Escherichia coli growth; 0.21% of 330,000 active; OD600 absorbance (test concentration not listed); OD600, 23 h; hits give low values; AID 1053175;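 active means OD600 absorbance below the run mean of sample wells minus 3.6 SD, in any replicate, cut at about 0.56 in these data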;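 further: stock transfer was 300 nL into about 60 µL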
# rRNA inh HTS – inhibitors of bacterial rRNA selective over humanized ribosomes; 1.6% of 350,000 active; E. coli WT GFP vs humanized-ribosome RFP mutants, fluorescence, 24 h; hits give low values; DMSO median 0, no signal -100; GFP signal change (wild-type ribosome), % (no concentration beside the values); AID 720706;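 active means significant combined selectivity score with lowered wild-type GFP, culture density cut under 30%, mutant RFP and density less affected; inactive means any of these conditions unmet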; further: one replicate is shown; some compounds called inactive have numbers as strong as hits
# UCH37 DUB inh – human UCH37 deubiquitinating enzyme inhibition | purified proteasome/UCH37, Ub-AMC cleavage fluorescence | inhibition, % (no concentration beside the values) | 0.33% of 330,000 active;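 active means mean of two replicates above 20%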;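 further: 0% = compound-free wells with enzyme and 100% = wells lacking proteasome; stock transfer was 100 nL into about 20 µL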
# Target sequence (Q9Y5K5 whole entry, looked up): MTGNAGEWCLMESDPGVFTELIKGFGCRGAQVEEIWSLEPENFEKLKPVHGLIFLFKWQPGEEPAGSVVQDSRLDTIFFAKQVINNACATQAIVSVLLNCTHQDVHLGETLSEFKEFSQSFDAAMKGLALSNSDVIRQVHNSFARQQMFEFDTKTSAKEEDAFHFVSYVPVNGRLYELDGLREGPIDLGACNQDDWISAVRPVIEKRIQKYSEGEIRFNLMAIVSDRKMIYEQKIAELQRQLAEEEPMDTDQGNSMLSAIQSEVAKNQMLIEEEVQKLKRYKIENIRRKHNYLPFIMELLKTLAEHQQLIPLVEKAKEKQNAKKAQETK
#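 assay system = human UCH37 enzyme supplied as purified proteasome complex | amount = proteasome at 0.15 nM in the dispensed enzyme solution | schedule = 30 min compound-proteasome preincubation then 25 min substrate reaction, room temperature | measured by = fluorescence, ex 355 nm, em 460 nm | benchmarks = no-proteasome wells (full inhibition) and compound-free wells (no inhibition)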
# T cruzi repl – T. cruzi replication inhibition. T. cruzi beta-gal in NIH3T3, luminescence, 90 h. inhibition, % (no concentration beside the values). 1.4% of 300,000 active;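 active means mean inhibition across valid replicates above about 55%, limit read from the data; inconclusive means mean below that limit but half or more replicates reach it; inactive means mean below it, under half of replicates reach it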;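 further: signal also drops with host cell toxicity which is not excluded here; 0% = plate median of DMSO wells and 100% = zero luminescence signal; higher percent means less beta-gal luminescence so fewer parasites; stock transfer was 50 nL into about 50 µL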
# rRNA inh HTS OD600 – also measured in rRNA inh HTS; calls as there; OD600 change, %; measured here: OD600 growth;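 optical density of the mix in the first replicate; 0 = DMSO median and -100 = no signal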
# rRNA inh HTS RFP – also measured in rRNA inh HTS; calls as there; RFP signal change, %; measured here: RFP humanized mutant strains;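 first replicate; 0 = DMSO median and -100 = no signal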
# An asterisk follows results filed as active; i = inactive; u = inconclusive; x = not tested or not shown; & = joins results of further samples. These rows are one share of the data; rates above refer to the full screens.
SMILES,A1 inh,AF4-AF9 inh,Beta cell apopt,FGF22 binding,Ecoli growth,rRNA inh HTS,rRNA inh HTS OD600,rRNA inh HTS RFP,UCH37 DUB inh,T cruzi repl
O=c1[nH]c2c(oc3ccccc32)c(=O)n1Cc1ccccc1,-1.0,u,-1,i,0.66,9,12,-0.9,-6.9,-3
CCCCCN(C(=O)CCC(=O)OC(C)C(=O)c1ccc(CC)cc1)c1c(N)n(CCCC)c(=O)[nH]c1=O (centres undefined),x,-2.3,x,i,0.68,8,-11,-1.0,0.6,x
CC(NS(=O)(=O)c1ccc(F)cc1)C(c1cccs1)N1CCOCC1 (centres undefined),1.1,0.2,-4,i,0.69,0,1,-0.4,-5.8,-10
COc1ccc(/C=N/NC(=O)C2CC2)c(OC)c1OC,-0.3,0.1,3,i,x,21,9,-1.7,x,-1
CCn1c(C(O)c2ccc(C)cc2)nc2ccccc21 (centres undefined),-0.9,x,x,x,0.67,x,x,x,6.6,-27
O=C(/C=C/c1ccc(F)cc1)NCc1ccco1,0.4,x,1,x,0.66,x,x,x,3.5,-21
CCC(C)(C)NC(=O)CN(C(=O)C(=O)Nc1ccc2c(c1)OCCO2)C(C)(C)CC,0.7,1.6,-4,i,0.64,-7,-30,7.9,3.7,-2
Cc1csc(NC(=O)CSCC(=O)Nc2ccccc2)n1,0.2,x,x,x,0.78,x,x,x,5.0,-16
CCNC(=O)CC1C(=O)N(c2ccc(OC)cc2)C(=S)N1CCc1ccncc1 (centres undefined),0.1,x,-3,x,0.67,x,x,x,3.7,3
CCN(CC)N=Nc1ccc(S(=O)(=O)Nc2c(C)n(C)n(-c3ccccc3)c2=O)cc1,0.3,-3.4,-6,i,0.67,0,-6,-1.4,11,3
CCOc1ccc(S(=O)(=O)NCCC(=O)NCCOc2ccccc2)cc1,0.6,0.2,-2,i,0.67,-1,-4,-1.4,3.5,-8
COc1cccc(CN2CCN(CC(=O)NCCc3ccccc3)CC2)c1,0.8,5.1,-1,i,0.6,0,-3,-3.5,1.0,8
CCOC(=O)C[C@H]1c2ccc(C(F)(F)F)cc2S(=O)(=O)N1Cc1ccccc1,0.2,-5.0,4,i,x,-17,-23,-8.8,2.5,0
CCOC(=O)Cn1nnnc1CN(Cc1ccc(OC)cc1)Cc1cc2cc(C)cc(C)c2[nH]c1=O,-0.4,x,0,x,0.69,x,x,x,-3.2,8
O=C(/C=C/c1cccs1)Nc1ccc(S(=O)(=O)Nc2ncccn2)cc1,-0.8,-13,-6,i,0.72,14,5,3.2,13,6
COc1cccc(/C=C/C(=O)OCC(=O)Nc2ccc(S(=O)(=O)N3CCCC3)cc2)c1,-0.3,5.7,-3,i,0.65,-12,0,-9.0,-17,-4
CCCC[C@@H]1CCCO[C@@](C(=O)NCc2ccc(C)o2)(C(F)(F)F)C1,-0.6,-3.6,-3,i,0.79,-1,10,6.7,2.0,17
COCc1nnc(NC(=O)c2ccc(S(=O)(=O)N(C)c3ccccc3)cc2)o1,0.5,6.6,x,i,0.71,-40,-69,-11,5.0,-10
O=C(Nc1ccc2nc3n(c(=O)c2c1)CCCC3)c1cncc(Br)c1,0.0,-2.3,5,i,0.71,-1,-5,-2.0,0.4,-3
COc1ccc([N+](=O)[O-])cc1NC(=O)Cn1ccc(C(F)(F)F)n1,0.2,-0.1,4,i,0.65,11,7,1.6,3.5,0
Cc1ccc(CCNC(=O)C2CC(c3ccccc3C(F)(F)F)=NO2)cc1 (centres undefined),0.2,0.6,-4,i,0.66,-30,-37,0.1,0.4,-4
COc1ccccc1C1(CC(=O)N2CCCCC2)CCOC(C(C)C)C1 (centres undefined),0.8,-4.0,-4,x,0.62,x,x,x,1.5,-1
Cc1ccc(N2CC(C(N)=O)CC2=O)cc1 (centres undefined),-0.5,x,0,x,0.67,x,x,x,4.0,-14
CCCc1c(C(=O)N/N=C(\C)CCc2ccccc2)nnn1-c1nonc1N,1.0,-4.1,3,i,x,13,26,2.1,x,16
O[C@@H]([C@H](O)[C@H](O)CBr)[C@H](O)CBr,-0.4,-1.3,-5,i,x,x,x,x,4.4,-14
CCCN1CCN(CCNC(=O)Nc2cc(C)ccc2C)CC1,0.7,-1.8,-4,i,0.66,0,6,3.6,0.4,-13
CCN1CCOC(CC(=O)Nc2cccc([N+](=O)[O-])c2)C1=O (centres undefined),1.2,0.1,-6,i,0.67,5,13,-0.8,2.0,-16
CN1CCN(S(=O)(=O)c2cccc(S(=O)(=O)c3ccc(Cl)c(Cl)c3)c2)CC1,-0.6,x,3,x,0.77,x,x,x,0.4,13
O=C(Nc1ccccc1)/C(=C/c1ccccc1)c1ccccc1,0.5,x,-1,x,0.71,x,x,x,4.7,11
O=[N+]([O-])c1cc(S(=O)(=O)N2CCCCC2)ccc1NCc1cccc(Cl)c1,0.0,x,3,x,0.77,x,x,x,6.8,23
O=C(NC(Cc1ccccc1)C(=O)NC(Cc1ccccc1)C(=O)O)c1ccccc1 (centres undefined),1.3,-0.2,1,i,0.67,4,6,0.5,0.1,3
CCOc1cc(S(=O)(=O)N2CCN(Cc3ccccc3)CC2)ccc1Br,-0.6,x,-5,x,0.8,x,x,x,3.5,32
c1cnc(Oc2ccc(-c3nnco3)cc2)cn1,-0.7,x,x,x,0.67,x,x,x,5.1,-8
Cc1ccc(CNC(=O)/C=C/c2ccc(Br)o2)cc1,-0.1,x,-5,x,0.66,x,x,x,-0.3,0
CN1CCN(C(=O)c2cc(Cl)ccc2NC(=O)c2ccc(Cl)cc2Cl)CC1,-0.6,-1.4,-2,i,0.74,2,4,0.4,2.8,-7
O=C(CN1C(=O)/C(=C/c2ccc(C(F)(F)F)cc2)Sc2ccccc21)NCCCN1CCOCC1,0.1,4.8,-3,i,0.66,-47,-60,-11,2.4,12
CNC(=S)NCc1ccc(OC)cc1,0.7,6.4,-4,i,0.7,4,4,3.7,-0.3,-4
CC(=O)Nc1ccc(S(=O)(=O)Nc2nc(C)cc(-n3nc(C)cc3C)n2)cc1,0.8,x,1,x,0.71,x,x,x,3.4,-10
COc1cc(C(=O)N/N=C(\C)Cc2ccccc2)cc(OC)c1OC,-0.1,1.4,-6,x,x,13,17,4.5,x,8
O=S(=O)(Nc1ccccn1)c1ccc(Oc2ccccc2)cc1,-1.0,x,-1,x,0.69,x,x,x,1.6,-3
S=C(c1ccc(N2CCOCC2)cc1)N1CCOCC1,-0.4,x,3,x,0.7,x,x,x,3.2,-12
Cc1ccccc1C(=O)N(C)Cc1ccccc1,0.7,x,-2,x,0.66,x,x,x,2.4,3
CC(=O)Nc1cccc(NS(=O)(=O)Cc2ccc(Cl)cc2)c1,0.3,x,-2,x,0.73,x,x,x,1.4,-11
Cn1c(SCC(=O)Nc2nccs2)nnc1-c1cccnc1,-0.4,-6.0,-3,i,0.69,12,17,-1.5,1.0,x
COC(=O)c1ccc(OCC(=O)Nc2nn(-c3ccccc3)nc2C(N)=O)cc1,0.8,x,-2,x,0.73,x,x,x,-18,5
CCOC(=O)Cc1csc(NC(=O)CSc2nc3cccnc3n2CC)n1,0.5,x,-1,x,0.73,x,x,x,4.2,-17
O=C(O)CCCNC(=O)c1cncc(O)c1,-0.8,x,-3,x,0.66,x,x,x,-13,4
CCC(C)Sc1cccc(-c2nc3ccc(C)cn3c2NC2CCCCC2)c1 (centres undefined),0.8,5.5&-2.7,57,i,0.8,-5,3,1.9,-111,20

# Reprinted from the results shown, 12 compounds:
SMILES,A1 inh,AF4-AF9 inh,Beta cell apopt,FGF22 binding,Ecoli growth,rRNA inh HTS,rRNA inh HTS OD600,rRNA inh HTS RFP,UCH37 DUB inh,T cruzi repl
CNC(=S)NCc1ccc(OC)cc1,0.7,6.4,-4,i,0.7,4,4,3.7,-0.3,-4
CC(=O)Nc1ccc(S(=O)(=O)Nc2nc(C)cc(-n3nc(C)cc3C)n2)cc1,0.8,x,1,x,0.71,x,x,x,3.4,-10
COc1cc(C(=O)N/N=C(\C)Cc2ccccc2)cc(OC)c1OC,-0.1,1.4,-6,x,x,13,17,4.5,x,8
O=S(=O)(Nc1ccccn1)c1ccc(Oc2ccccc2)cc1,-1.0,x,-1,x,0.69,x,x,x,1.6,-3
S=C(c1ccc(N2CCOCC2)cc1)N1CCOCC1,-0.4,x,3,x,0.7,x,x,x,3.2,-12
Cc1ccccc1C(=O)N(C)Cc1ccccc1,0.7,x,-2,x,0.66,x,x,x,2.4,3
CC(=O)Nc1cccc(NS(=O)(=O)Cc2ccc(Cl)cc2)c1,0.3,x,-2,x,0.73,x,x,x,1.4,-11
Cn1c(SCC(=O)Nc2nccs2)nnc1-c1cccnc1,-0.4,-6.0,-3,i,0.69,12,17,-1.5,1.0,x
COC(=O)c1ccc(OCC(=O)Nc2nn(-c3ccccc3)nc2C(N)=O)cc1,0.8,x,-2,x,0.73,x,x,x,-18,5
CCOC(=O)Cc1csc(NC(=O)CSc2nc3cccnc3n2CC)n1,0.5,x,-1,x,0.73,x,x,x,4.2,-17
O=C(O)CCCNC(=O)c1cncc(O)c1,-0.8,x,-3,x,0.66,x,x,x,-13,4
CCC(C)Sc1cccc(-c2nc3ccc(C)cn3c2NC2CCCCC2)c1 (centres undefined),0.8,5.5&-2.7,57,i,0.8,-5,3,1.9,-111,20

# Next results
SMILES,A1 inh,AF4-AF9 inh,Beta cell apopt,FGF22 binding,Ecoli growth,rRNA inh HTS,rRNA inh HTS OD600,rRNA inh HTS RFP,UCH37 DUB inh,T cruzi repl
COc1ccccc1N(CC(=O)NCC1CCCO1)C(=O)CCC(=O)Nc1cc(C)on1 (centres undefined),1.6,-2.2,0,i,0.66,6,12,0.1,1.1,-1
CC1(C)C(c2ccccc2)=NC(c2ccc(Br)cc2)N1O (centres undefined),u,0.6,-2,i,0.72,-26,-44,-1.5,-0.4,-27
COc1ccc(C(CC(=O)O)NS(=O)(=O)c2ccc(C)cc2)cc1OC (centres undefined),0.1,x,-1,x,0.7,x,x,x,4.3,-11
CN(C(=O)c1cc(S(=O)(=O)N2CCOCC2)cs1)c1ccccc1,0.1,-3.1,-2,i,0.72,4,3,-0.7,2.4,-10
